# B2AR ag: activates human beta-2 adrenergic receptor causing internalization. P07550. Am2.2-beta2AR cells, FAP receptor internalization, flow cytometry; reference of the scale not given here. response, % (no concentration beside the values). 340,000 tested, 0.43% active;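 active = response above a set limit, near 3 SD of response in nonfluorescent compounds, cut at about 42% in these data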;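 also: stock transfer was 100 nL into about 11 µL; a reference agonist was the positive control; negative values mostly stem from fluorescent compounds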
# Ecoli rRNA inh: selective bacterial rRNA inhibition in E. coli; AID 720706; 350,000 tested, 1.6% active; GFP signal change (wild-type ribosome), % (test concentration not listed); E. coli WT GFP vs humanized-ribosome RFP mutants, fluorescence, 24 h; active compounds read low; DMSO median 0, no signal -100;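 active = significant combined selectivity score with lowered wild-type GFP, culture density cut under 30%, mutant RFP and density less affected; inactive = any of these conditions unmet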; also: one replicate is shown; some compounds called inactive have numbers as strong as hits
# Ecoli rRNA inh OD600: further read-out of Ecoli rRNA inh, marked with its call; OD600 change, %; measured here: OD600 growth;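 optical density of the mix in the first replicate; 0 = DMSO median and -100 = no signal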
# Ecoli rRNA inh RFP: further read-out of Ecoli rRNA inh, marked with its call; RFP signal change, %; measured here: RFP humanized mutant strains;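 first replicate; 0 = DMSO median and -100 = no signal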
# The depositor's hits bear a star; nt = not tested or not shown.
SMILES,B2AR ag,Ecoli rRNA inh,Ecoli rRNA inh OD600,Ecoli rRNA inh RFP
C=C1c2cccc(O)c2C(=O)C2C(=O)[C@]3(O)C(=O)C(C(N)=O)C(=O)[C@@H](N(C)C)[C@@H]3[C@@H](O)[C@H]12 (stereo partly drawn),1.7,nt,nt,nt
COc1cncc(C#Cc2ccccn2)c1,nt,1.1,5.6,-5.7

# Screening results from PubChem BioAssay.

# Some of the compounds tested; the hit share may differ from the screen's.
